D2 ag: Beta-Arrestin HTS for Positive Allosteric Modulators of the Human D2 Dopamine Receptor: Agonists. hit rate 0.084% among 360,000. activation, % (test concentration not listed). DiscoveRx PathHunter D2 beta-arrestin, luminescence, 90 min; 100% = 57 uM dopamine signal. AID 624465, 2012; in the data active = activation above about 40%; inconclusive = about 15% to 40%; inactive = below about 15%; further: compound concentration not given in the record; the text of the record calls up to 30% inactive
Target sequence (P14416 whole entry, looked up): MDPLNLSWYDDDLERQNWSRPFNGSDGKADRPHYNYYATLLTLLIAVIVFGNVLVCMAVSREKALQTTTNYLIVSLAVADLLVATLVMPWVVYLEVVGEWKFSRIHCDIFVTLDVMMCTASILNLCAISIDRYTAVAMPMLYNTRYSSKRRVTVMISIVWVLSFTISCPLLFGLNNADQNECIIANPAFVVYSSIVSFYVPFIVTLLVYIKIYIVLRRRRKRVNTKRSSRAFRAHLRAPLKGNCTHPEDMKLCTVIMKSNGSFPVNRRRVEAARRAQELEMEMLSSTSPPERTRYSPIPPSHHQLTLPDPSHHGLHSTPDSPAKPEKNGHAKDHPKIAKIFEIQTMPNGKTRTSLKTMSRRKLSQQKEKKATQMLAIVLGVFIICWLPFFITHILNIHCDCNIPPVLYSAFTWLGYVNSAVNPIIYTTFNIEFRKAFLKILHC
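Agonist mode: compounds alone added to overnight-plated D2 PathHunter cells for 90 min at 37 C, with 57 uM final dopamine (EC100) defining full response. Beta-arrestin recruitment detected by chemiluminescent reagent, read after 1 h at ambient temperature.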
CtBP-E1A blk: qHTS Assay for Inhibitors of the CtBP/E1A Interaction | CtBP / adenovirus E1A interaction (AlphaScreen) | AlphaScreen GST-E1A/His-CtBP binding, 1536-well; hits give low values; control for the full effect not named in the record | activity change, % (concentration not given with the values) | hit rate 0.49% among 340,000; in the data active means activity change below about -65%; inconclusive means about -30% to -65%; inactive means above about -30%; further: on the % scale 0 is the no-effect control and ±100 the full control effect
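In 5 uL wells, 23 nL compound meets equimolar GST-E1A and His-CtBP (5X stock 125 nM each) for 2 h, 37 °C. Beads (5X, 50 ug/mL) then 1 h, 37 °C, dark.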
Six1-Eya2 blk: qHTS Assay for Inhibitors of the Six1/Eya2 Interaction; Homeobox protein SIX1 (Homo sapiens) + Protein phosphatase EYA2 (Homo sapiens), …; AID 651725, 2012; AlphaScreen GST-Six1/His-Eya2 binding, biochemical; hits give low values; control for the full effect not named in the record; activity change, % (concentration not given with the values); hit rate 0.56% among 360,000; in the data active = activity change below about -65%; inconclusive = about -30% to -65%; inactive = above about -30%; further: on the % scale 0 is the no-effect control and ±100 the full control effect
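GST-Six1 + His-Eya2 (5X stock: 250/500 nM); Tris pH 8.0, 300 mM NaCl, 0.05% BSA, 0.02% Tween 20; GSH donor/Ni acceptor beads; 1 h 37 °C dark; AlphaScreen readout.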
TRPML1 agonist: qHTS for Agonists of the Human Mucolipin Transient Receptor Potential 1 (TRPML1); AID 624414, 2012; hit rate 0.12% among 410,000; activation, % (no concentration beside the values); TRPML1-expressing cells, Ca2+ dye fluorescence, FDSS; host cell line not named in the record; reference of the full effect not given here; in the data active = activation above about 50%; inconclusive = about 30% to 50%; inactive = below about 30%; further: 0% is about no effect; the text of the record puts the active cut at 80%
Target sequence (Q9GZU1 whole entry, looked up): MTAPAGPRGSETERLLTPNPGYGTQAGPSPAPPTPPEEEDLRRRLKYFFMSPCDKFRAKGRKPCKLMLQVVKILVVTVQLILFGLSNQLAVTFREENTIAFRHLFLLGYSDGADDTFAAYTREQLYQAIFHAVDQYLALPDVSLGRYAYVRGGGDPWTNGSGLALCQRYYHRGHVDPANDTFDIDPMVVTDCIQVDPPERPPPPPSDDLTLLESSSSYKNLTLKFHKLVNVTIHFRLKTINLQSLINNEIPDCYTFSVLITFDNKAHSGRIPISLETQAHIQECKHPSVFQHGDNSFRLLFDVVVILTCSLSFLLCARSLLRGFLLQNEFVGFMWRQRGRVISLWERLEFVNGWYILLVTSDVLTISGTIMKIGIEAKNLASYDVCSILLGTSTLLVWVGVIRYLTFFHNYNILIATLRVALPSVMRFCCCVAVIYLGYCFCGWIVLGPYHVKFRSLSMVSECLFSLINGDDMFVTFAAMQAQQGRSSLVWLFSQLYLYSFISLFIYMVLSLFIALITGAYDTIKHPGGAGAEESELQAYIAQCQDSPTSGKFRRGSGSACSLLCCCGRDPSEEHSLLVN
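In this qHTS format, compounds were pin-transferred onto Ca8-dye-loaded TRPML1-DL cells induced with Tet overnight, and intracellular Ca2+ fluorescence was recorded kinetically for 110 s after a 10 s baseline. A subsequent 4uM final 54-4 (EC80) addition followed by a second 110 s read served as the antagonist phase.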
TRPML1 blocker: qHTS for Inhibitors of the Human Mucolipin Transient Receptor Potential 1 (TRPML1); TRPML1-inducible cells, Ca2+ dye fluorescence, FDSS; hits give low values; inhibition of EC80 agonist-evoked calcium signal; activity change, negative = inhibition, % (concentration not given with the values); hit rate 0.02% among 390,000; AID 624415, 2012; in the data active means activity change below about -50%; inconclusive means about -30% to -50%; inactive means above about -30%;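 further: stimulus is agonist 54-4 at its EC80 concentration; on the % scale 0 is the no-effect control and ±100 the full control effect; compound concentration not given in the record; the text of the record puts the active cut at -80%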
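Calcium fluorescence in TRPML1-DL cells induced overnight with Tet: a 110 s read after compound pin addition, then a 110 s antagonist read after challenge with 54-4 at 4 uM final (EC80).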
PINK1 expr mod: A Quantitative High throughput Screen to Identify Chemical Modulators of PINK1 Expression; PINK1 immunofluorescence, high-content cytometry, 24 h; Potency, µM (doses to about 76.6 µM), without a hit: top-dose activation (PINK1 increase), actives largely listed as activators; hit rate 0.2% among 410,000; AID 624263, 2012; active = well fitted activation curve with a large enough effect; inconclusive = small, poorly fitted or top-dose-only effect; inactive = flat fitted curve, though single readings scatter; cell line not stated here;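 further: potency means the concentration at half of the fitted maximal effect; % of control where 0% means no effect; nearly all actives have a fitted effect of over 65% in size; a mitochondrial uncoupler was the plate control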
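PINK1 protein level read as immunofluorescence by microplate cytometer in a fixed, stained stable cell line after 24 h exposure to five compound concentrations, with CCCP as control.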
Numbers without * were called inactive; u = inconclusive; x = no result given; & = joins results of further samples; [ ] = another dose, or the depositor's remark.

SMILES	D2 ag	CtBP-E1A blk	Six1-Eya2 blk	TRPML1 agonist	TRPML1 blocker	PINK1 expr mod
COCCc1ncc(CN2CCCCC2C(=O)Nc2ccc(Oc3ccccc3)nc2)cn1 (stereo unspecified)	-3.4	4	4	1.1	-2	1.9%
COC(=O)c1ccc(Oc2ccc(C(F)(F)F)cn2)cc1	-0.4	0	12	-0.9	-6	3.8%
CCOP(=O)(OCC)C(NC(=O)Nc1ccc(Cl)c(Cl)c1)C(N)=O (stereo unspecified)	-3.5	10	6	-0.4	-1	0.4%
Cc1ccc(CNS(=O)(=O)N(C)C)cc1	-2.1	3	-6	-0.4	-2	2.2%
CCCn1c(SCC(=O)N2CCCC2)nc2c1c(=O)n(C)c(=O)n2C	-1.5	6	2	-1.0	9	2.5%
Cc1c(Cl)cccc1-n1c(-c2cccnc2)n[nH]c1=S	-3.2	11	12	0.5	-9	0.6%
Cc1ccc(NC(=O)c2c(C)oc3c2C2=NCCN2C=N3)cc1F	x	x	x	-0.5	-7	-0.5%
COc1ccc2[nH]c3c(N4CCN(Cc5ccc6c(c5)OCO6)CC4)ncnc3c2c1	8.7	u	-65*	-0.2	9	7.6%
Cc1c(C(=O)N2CCCCCC2)c(S(=O)(=O)Nc2cccc(F)c2)c(C)n1C	-3.2	2	2	-0.1	-11	-1.6%
Cc1ccccc1NC(=O)N1CCC(CN2CCCC2)CC1	x	x	x	1.7	-4	0.8%
CC1(C)Cc2c(sc(NC(=O)c3ccccc3Cl)c2C(=O)O)CO1	-0.4	-4	-5	-1.1	5	0.3%
O=C(CCC(=O)N1CCOCC1)NCCc1ccc(F)cc1	2.6	-14	1	0.2	-4	1.3%
CN(C)c1ccc(C(c2nnnn2CCOC(=O)Nc2ccc(Cl)cc2)N2CCOCC2)cc1 (stereo unspecified)	1.1	-20	-18	1.9	-9	0.4%
O=C(COC(=O)C1COc2ccccc2O1)Nc1cccc(S(=O)(=O)N2CCCCC2)c1 (stereo unspecified)	-0.2	9	-13	-0.2	18	5.0%
CC(=O)Nc1ccc(NC(=O)c2ccccc2Nc2ccccc2)cc1	-5.9	0	1	0.7	-14	3.4%
CCOCCCNC(=O)c1ccc(OC2CCN(C(C)=O)CC2)c(OC)c1	3.6	-18	8	-0.3	5	0.0%
CN(C)C(=O)N1CCN(S(=O)(=O)c2ccc3ccccc3c2)CC1	-1.1	-15	-1	0.2	-13	1.0%
O=c1cccc2c1c1cc[nH]c3ccc(=O)n2c31	-7.9	-11	u	1.3	0	-1.1%
O=C1NC(c2cccc(OCc3ccccc3)c2)Nc2ccccc21 (stereo unspecified)	1.2	-3	0	0.6	-11	1.5%
OCC(O)C(O)C(O)c1cnn(-c2ccccc2)n1 (stereo unspecified)	4.2	11	2	1.3	3	5.6%
COc1ccc(Cl)cc1NC(=O)C1CCCN(c2ncnc3onc(C)c23)C1 (stereo unspecified)	x	x	x	1.5	-8	-0.6%
CN1C(=O)c2[nH]nc(-c3ccc(F)cc3)c2C1c1cccc(O)c1 (stereo unspecified)	x	x	x	0.9	14	0.5%
O=C(NCc1ccco1)C(=O)NCC1OCCCN1S(=O)(=O)c1ccccc1 (stereo unspecified)	1.8	4	4	-0.1	-10	3.4%
COc1ccc(NC(=O)C2Cc3ccccc3CN2C(=O)c2ccco2)cc1 (stereo unspecified)	-2.1	-1	-1	-0.8	5	1.8%
COc1ccc(-c2cc(C(F)F)n3ncc(C(=O)N4CCSCC4)c3n2)cc1	-3.5	5	19	2.1	11	-1.4%
CCCCCc1nn2cc(-c3ccccc3)nc2s1	x	x	x	-0.5	31	3.7%
COc1cc(/C=c2\sc3nc(=O)c(-c4ccccc4)nn3c2=O)ccc1OCCC(C)C	-2.3	1	-2	0.3	-11	u
O=C(Nc1nccs1)C1CCCN1S(=O)(=O)c1cccc2cccnc12 (stereo unspecified)	-6.3	-17	-9	-0.4	-4	2.9%
O=C1Nc2ccccc2N(O)N1c1cc(-c2ccccc2Cl)no1	-0.1	1	0	2.9	-8	-2.1%
O=C(Nc1c2c(nn1-c1ccccc1)CS(=O)C2)c1ccc(S(=O)(=O)N2CCOCC2)cc1 (stereo unspecified)	-5.4	x	18	0.0	-5	2.0%
CCCn1c(NCc2cccs2)nc2ccccc21	-5.0	4	-1	1.2	0	0.2%
Cc1cccc(-n2nc(C(=O)c3ccco3)cc(-c3nc4ccccc4[nH]3)c2=N)c1	-0.6	x	-2	-0.1	-15	4.2%
Clc1ccc(C2CC(c3cccs3)n3ncnc3N2)c(Cl)c1 (stereo unspecified)	1.8	0	4	1.1	-7	2.4%
O=C(/C=C/c1ccc2c(c1)OCO2)c1ccc[nH]1	-3.9	-21	-8	1.5	6	0.9%
CCOC(=O)c1c(NC(=O)CN2CCN(c3cccc(Cl)c3)CC2)sc(C)c1C	-3.9	-4	3	x	x	2.6%
Cc1ccc(NC(=O)CN2CCN(Cc3ccccc3)CC2)c(Br)c1	-5.9	4	-8	0.1	10	9.2%
CCOc1ccc(CCN2C(=O)C(=O)N([C@@H](Cc3ccc(O)cc3)CN3CCC[C@H]3CN3C(=O)C(=O)NC[C@@H]3Cc3ccccc3)C[C@@H]2Cc2ccc(O)cc2)cc1	x	0	-7	2.2	x	1.3%
COc1ccc(Br)cc1C(=O)Nc1ccccc1N1CCN(C(=O)c2ccccc2)CC1	-2.0	-9	-5	-0.3	-20	-1.1%
CNC(=S)N(C)/N=C1/C(=O)N(Cc2c(Cl)cccc2Cl)c2ccccc21	-3.7	-18	u	-0.5	17	17%
CCOc1ccc(S(=O)(=O)NCc2ccccn2)c(C)c1C	-0.4	7	4	0.5	0	2.3%
O=C(CSc1nnc(-c2ccccc2)o1)c1nnc(-c2ccccc2)o1	0.5	-14	-19	0.4	8	-0.7%
Cc1cccc2c1CC(C)(C)N=C2C1=C(O)CCCC1=O	-2.5	8	6	0.2	16	-1.5%
O=C(Nc1cccc([N+](=O)[O-])c1)N1CCN(c2ccccc2)CC1	0.7	-2	-6	-0.8	13	-0.5%
COc1ccc(CNC(=O)CCc2cn(Cc3cc(C)ccc3C)c3ccccc23)cc1OC	x	x	x	0.5	-5	-0.4%
Cn1c(CNC(=O)C2CCCCC2)cc2cc(Cl)ccc21	6.5	-1	5	-0.7	9	6.3%
Cc1ccc(CNc2nc3c([nH]2)c(=O)n(C)c(=O)n3C)cc1	3.1	1	13	2.6	1	-1.2%
O=C(NCCCc1nc2ccccc2[nH]1)c1ccco1	2.0	7	-3	0.2	16	1.1%
Cc1ccc(NS(=O)(=O)c2ccc(-c3ccc(=O)[nH]n3)o2)cc1	-0.1	-13	-12	-0.4	-13	-0.4%
CC(C)CN(Cc1cc(=O)oc2cc3c(cc12)CCCC3)CC(C)C	-5.0	x	0	0.7	-12	22%
COc1ccc(-c2cccc([C@H]3[C@@H]4C=CC[C@@H](C)[C@@H]4C(=O)N3Cc3ccccc3)c2)cc1	-1.7	-7	-10	-1.0	-2	18%
CCCCCCSC1=C(C#N)C(c2ccc(C)o2)CC(=O)N1 (stereo unspecified)	0.6	10	-2	-0.4	-2	x
COc1cccc(NC(=O)CCNS(=O)(=O)c2cccc3nsnc23)c1	0.1	1	-15	-0.3	11	-0.4%
COc1ccc2oc(C(=O)N(Cc3ccco3)Cc3cccs3)c(C)c2c1	-4.9	9	-9	1.3	22	4.9%
CCc1nn(CC(=O)NCCCN(CC)CC)c(=O)c2cc3sc(C)cc3n12	0.8	0	-6	0.9&0.0	-24&18	1.9%&-0.1%
CCOc1ccc(NC(=S)N2CCCN(Cc3cc(C)ccc3C)C2)cc1	-5.3	x	-14	-0.5	-20	-0.7%
Cc1cccc(/C=N/NC(=O)c2cccc(Cl)c2)n1	3.2	u	u	0.3	6	-1.5%
COc1ccc(-c2cc3ccccc3nc2N)cc1OC	-3.0	x	3	0.0	9	0.6%
Cc1onc(-c2c(F)cccc2Cl)c1C(=O)NC1CCCCCC1	-4.0	4	12	-0.1	-13	-1.8%
CCCCCc1ccc(-c2cn(CCc3c[nH]c4ccccc34)nn2)cc1	-1.6	-1	-6	-0.3&0.2	-11	8.6%
COC(=O)C1=C(C)N(CCCC(=O)O)C(=O)NC1c1ccc(-c2ccccc2)cc1 (stereo unspecified)	-1.1	2	-15	-0.5	21	1.6%

The list goes on.
SMILES	D2 ag	CtBP-E1A blk	Six1-Eya2 blk	TRPML1 agonist	TRPML1 blocker	PINK1 expr mod
Cc1ccc(-n2c(C)cc(/C=C(\C#N)C(=O)NCC3CCCO3)c2C)cc1 (stereo unspecified)	-1.6	-19	-10	0.7	19	-1.0%[38.3 µM]
COc1cccc(-c2nc(CN3CCN(C(=O)c4ccco4)CC3)c(C)o2)c1OC	u	3	-1	-0.8	-6	-0.8%
CCOC(=O)c1ccc2c(c1)N(CC(=O)Nc1ccc(C)cc1C)C(=O)c1ccccc1S2	x	x	x	2.3	27	-0.3%
COc1cc(SC)ccc1C(=O)Nc1nc2ccccc2[nH]1	-11	1	-2	1.7	u	2.3%
Cc1ccc(S(=O)(=O)C(C)C(=O)NCCS(=O)(=O)c2ccc(Cl)cc2)cc1 (stereo unspecified)	-11	-10	2	-0.8	18	1.7%
COC(=O)c1cc(NC(=O)CC2CCCC2)cc(C(=O)OC)c1	-3.0	0	3	0.3	-1	0.0%
Cc1nc(-c2ccc(Cl)cc2)sc1C1(C)CC(c2ccc(Br)cc2)=NO1 (stereo unspecified)	-2.4	-21	9	-0.4	2	0.5%
COC(=O)/C(=C/c1ccco1)NC(=O)c1ccco1	-3.3	-13	0	-0.6	15	-1.0%
C=CCOc1ccc(/C=C/C(=O)OCC(=O)NCCCc2ccccc2)cc1	1.8	7	-3	4.2	8	1.1%

Seven compounds drawn at random from the list so far:
SMILES	D2 ag	CtBP-E1A blk	Six1-Eya2 blk	TRPML1 agonist	TRPML1 blocker	PINK1 expr mod
Cc1ccc(S(=O)(=O)C(C)C(=O)NCCS(=O)(=O)c2ccc(Cl)cc2)cc1 (stereo unspecified)	-11	-10	2	-0.8	18	1.7%
C=CCOc1ccc(/C=C/C(=O)OCC(=O)NCCCc2ccccc2)cc1	1.8	7	-3	4.2	8	1.1%
Cc1nc(-c2ccc(Cl)cc2)sc1C1(C)CC(c2ccc(Br)cc2)=NO1 (stereo unspecified)	-2.4	-21	9	-0.4	2	0.5%
Cc1ccc(-n2c(C)cc(/C=C(\C#N)C(=O)NCC3CCCO3)c2C)cc1 (stereo unspecified)	-1.6	-19	-10	0.7	19	-1.0%[38.3 µM]
CCOC(=O)c1ccc2c(c1)N(CC(=O)Nc1ccc(C)cc1C)C(=O)c1ccccc1S2	x	x	x	2.3	27	-0.3%
COc1cccc(-c2nc(CN3CCN(C(=O)c4ccco4)CC3)c(C)o2)c1OC	u	3	-1	-0.8	-6	-0.8%
COC(=O)/C(=C/c1ccco1)NC(=O)c1ccco1	-3.3	-13	0	-0.6	15	-1.0%

Bioassay records from PubChem BioAssay.
